Screening results deposited in PubChem by National Center for Advancing Translational Sciences (NCATS).
TRPML1 agonist – activates the human TRPML1 channel | Q9GZU1 | AID 624414 | actives 0.12% (n = 410,000) | TRPML1-expressing cells, Ca2+ dye fluorescence, FDSS; host cell line not named in the record; reference of the full effect not given here | activation, % (concentration not given with the values); in the data active = activation above about 50%; inconclusive = about 30% to 50%; inactive = below about 30%; note: 0% is about no effect; the text of the record puts the active cut at 80%
Target sequence (Q9GZU1 whole entry, looked up): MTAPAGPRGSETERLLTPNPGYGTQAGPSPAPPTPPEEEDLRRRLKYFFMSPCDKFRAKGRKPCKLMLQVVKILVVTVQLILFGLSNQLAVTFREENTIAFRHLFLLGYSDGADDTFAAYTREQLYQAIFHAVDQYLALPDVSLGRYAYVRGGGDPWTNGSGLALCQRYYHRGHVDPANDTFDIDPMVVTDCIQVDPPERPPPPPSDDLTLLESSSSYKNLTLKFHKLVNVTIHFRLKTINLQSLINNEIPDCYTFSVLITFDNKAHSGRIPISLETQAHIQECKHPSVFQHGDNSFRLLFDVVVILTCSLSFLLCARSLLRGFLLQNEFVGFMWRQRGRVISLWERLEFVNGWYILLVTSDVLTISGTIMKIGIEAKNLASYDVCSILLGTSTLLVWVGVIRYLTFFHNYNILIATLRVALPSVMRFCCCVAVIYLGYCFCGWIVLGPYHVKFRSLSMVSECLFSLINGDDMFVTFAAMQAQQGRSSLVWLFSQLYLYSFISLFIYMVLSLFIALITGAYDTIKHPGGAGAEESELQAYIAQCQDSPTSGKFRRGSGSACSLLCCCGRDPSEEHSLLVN
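In this qHTS format, compounds were pin-transferred onto Ca8-dye-loaded TRPML1-DL cells induced with Tet overnight, and intracellular Ca2+ fluorescence was recorded kinetically for 110 s after a 10 s baseline. A subsequent 4uM final 54-4 (EC80) addition followed by a second 110 s read served as the antagonist phase.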
Six1-Eya2 blk – inhibitors of human Six1/Eya2 interaction | Q15475+O00167 | AlphaScreen GST-Six1/His-Eya2 binding, biochemical; hits give low values; control for the full effect not named in the record | activity change, % (no concentration beside the values) | actives 0.56% (n = 360,000) | AID 651725; in the data active = activity change below about -65%; inconclusive = about -30% to -65%; inactive = above about -30%; note: % is set by controls: 0 for no effect and ±100 for the full control effect; compound concentration not given in the record
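Homogeneous AlphaScreen proximity assay pairing GST-Six1 with His-tagged Eya2 (added as 5X mix: 250 nM and 500 nM) in 50 mM Tris pH 8.0, 300 mM NaCl, 1 mM TCEP. Glutathione donor and nickel acceptor beads; 1 h, 37 °C, dark.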
D2 agonist – agonists of human D2 dopamine receptor (beta-arrestin). DiscoveRx PathHunter D2 beta-arrestin, luminescence, 90 min; 100% = 57 uM dopamine signal. actives 0.084% (n = 360,000). AID 624465. P14416. activation, % (test concentration not listed); in the data active = activation above about 40%; inconclusive = about 15% to 40%; inactive = below about 15%; note: compound concentration not given in the record; the text of the record calls up to 30% inactive
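Agonist mode: compounds alone added to overnight-plated D2 PathHunter cells for 90 min at 37 C, with 57 uM final dopamine (EC100) defining full response. Beta-arrestin recruitment detected by chemiluminescent reagent, read after 1 h at ambient temperature.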
TRPML1 inh – blocks the human TRPML1 channel; TRPML1-inducible cells, Ca2+ dye fluorescence, FDSS; hits give low values; inhibition of EC80 agonist-evoked calcium signal; activity change, negative = inhibition, % (concentration not given with the values); actives 0.02% (n = 390,000); AID 624415; in the data active means activity change below about -50%; inconclusive means about -30% to -50%; inactive means above about -30%;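 note: stimulus is agonist 54-4 at its EC80 concentration; % is set by controls: 0 for no effect and ±100 for the full control effect; compound concentration not given in the record; the text of the record puts the active cut at -80%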
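Tet-induced TRPML1-DL cells loaded with Ca8 no-wash calcium dye were read kinetically on FDSS. Compound addition was followed by EC80 agonist 54-4 (4 uM final); inhibition was read over 110 s.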
CtBP-E1A inh – CtBP/E1A binding inhibition; AlphaScreen GST-E1A/His-CtBP binding, 1536-well; hits give low values; control for the full effect not named in the record; activity change, % (test concentration not listed); actives 0.49% (n = 340,000); in the data active means activity change below about -65%; inconclusive means about -30% to -65%; inactive means above about -30%; note: % is set by controls: 0 for no effect and ±100 for the full control effect; compound concentration not given in the record
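In 5 uL wells, 23 nL compound meets equimolar GST-E1A and His-CtBP (5X stock 125 nM each) for 2 h, 37 °C. Beads (5X, 50 ug/mL) then 1 h, 37 °C, dark.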
PINK1 expr mod – changes PINK1 expression. PINK1 immunofluorescence, high-content cytometry, 24 h. Potency, µM (highest dose often 76.6 µM), for inactives: at the highest dose activation (PINK1 increase), usual class: activators. actives 0.2% (n = 410,000); active = well fitted activation curve with a large enough effect; inconclusive = small, poorly fitted or top-dose-only effect; inactive = flat fitted curve, though single readings scatter; cell line not stated here;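 note: potency is the fitted concentration of half-maximal effect; % of control where 0% means no effect; nearly all actives have a fitted effect of over 65% in size; a mitochondrial uncoupler was the plate control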
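A stable cell line was treated with compounds at 5 concentrations for 24 hours, with CCCP as control. PINK1 levels and mitochondrial localization were measured by immunofluorescence with mitochondrial, cell and nuclear markers after fixation, read by laser-scanning cytometry.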
Numbers without * were called inactive; ? = inconclusive; . = no result given; [ ] = remark or other dose. Compounds were not picked by outcome, and some 1% of all compounds hit somewhere here.

1. O=C(O)CSc1nnc(-c2ccccc2O)n1Cc1ccccc1
2. Nc1nc(CSc2nnc(-c3cccc(F)c3)n2-c2ccccc2)nc(N2CCOCC2)n1
3. COC(=O)C1CN(C(=O)COc2ccc(C)c(C)c2)c2ccccc2O1 (configuration not stated)
4. N#CC1=C(N)N(c2ccccc2)C2=C(C(=O)CCC2)C1c1ccsc1 (configuration not stated)
5. CCc1ccc(C(=O)c2cn(CC(=O)Nc3cc(F)ccc3F)c3nc(C)ccc3c2=O)cc1
6. COc1cccc(CN2CC(C(=O)NCCCc3ccc(C)cc3)CCC2=O)c1 (configuration not stated)
7. CC(=O)Nc1ccc2c(c1)CCCC2=O
8. COc1ccc(-c2nc3n(c(=O)c2C#N)CCS3)cc1OC
Screen / compound no. | 1 | 2 | 3 | 4 | 5 | 6 | 7 | 8
TRPML1 agonist | -0.6 | 0.0 | 1.1 | 0.4 | 2.0 | 1.2 | 0.6 | 0.8
Six1-Eya2 blk | 5 | 1 | 7 | -6 | . | 1 | 4 | 4
D2 agonist | -1.7 | 0.1 | 3.2 | 3.5 | . | 7.3 | 15 | -5.0
TRPML1 inh | 8 | 9 | 18 | 16 | -4 | 16 | 19 | 9
CtBP-E1A inh | -2 | 14 | 4 | -3 | . | 3 | . | .
PINK1 expr mod | 1.4% | 15% | 0.7% | -13%[38.3 µM] | 3.3% | 0.4% | -0.9% | 0.5%

9. COc1ccc(OCc2nc3ccc(S(=O)(=O)Nc4ccccc4Cl)cc3[nH]2)cc1
10. O=C(CNc1ccc(F)cc1)N/N=C1\CCCc2ccccc21
11. Cc1ccn(-c2n[nH]c(C)c2[N+](=O)[O-])n1
12. CC(NC(=O)Cn1c(=O)oc2cc(S(=O)(=O)N3CCCC3)ccc21)c1ccccc1 (configuration not stated)
13. CCOC(=O)c1c(NC(=O)c2ccoc2C)sc2c1CCC2
14. CC1(C)Oc2ccc(C(=O)Nc3ccccc3)cc2N(CC#N)C1=O
15. O=C1C2C3C=CC(C4CC34)C2C(=O)N1c1cc(Cl)ccn1 (configuration not stated)
16. CC(C)N=C1CC(C)(C)CC(=O)/C1=C(/O)CCCN1C(=O)c2ccccc2C1=O
Screen / compound no. | 9 | 10 | 11 | 12 | 13 | 14 | 15 | 16
TRPML1 agonist | 0.7 | 2.7 | -0.2 | -0.5 | -0.4 | -0.7 | -0.6 | 0.5
Six1-Eya2 blk | ? | -12 | 11 | -2 | 0 | 1 | -21 | -1
D2 agonist | -0.1 | -0.2 | -2.1 | -5.0 | -2.9 | 0.7 | -0.5 | -4.6
TRPML1 inh | -1 | -1 | 0 | 1 | 7 | -11 | 4 | -8
CtBP-E1A inh | -4 | -1 | -2 | -1 | 7 | 1 | 12 | .
PINK1 expr mod | 3.3% | -0.4% | -0.6% | 2.2% | 3.2%[38.3 µM] | 1.3% | 3.2% | -0.3%

Quoted at random: three entries already listed.
13. CCOC(=O)c1c(NC(=O)c2ccoc2C)sc2c1CCC2
16. CC(C)N=C1CC(C)(C)CC(=O)/C1=C(/O)CCCN1C(=O)c2ccccc2C1=O
14. CC1(C)Oc2ccc(C(=O)Nc3ccccc3)cc2N(CC#N)C1=O
Screen / compound no. | 13 | 16 | 14
TRPML1 agonist | -0.4 | 0.5 | -0.7
Six1-Eya2 blk | 0 | -1 | 1
D2 agonist | -2.9 | -4.6 | 0.7
TRPML1 inh | 7 | -8 | -11
CtBP-E1A inh | 7 | . | 1
PINK1 expr mod | 3.2%[38.3 µM] | -0.3% | 1.3%

Remaining list, next part
17. COc1cc(Cl)c(C)cc1NC(=O)CSc1nnc(-c2cccnc2)n1Cc1ccco1
18. CCc1ccccc1NC(=O)NC(C)c1ccc2c(c1)OCO2 (configuration not stated)
19. Cc1ccccc1OCCOC(=O)c1nc2nccc(C)n2n1
20. CC(=O)OCc1c(C)cc(C)c(/C=C(/C#N)C(N)=O)c1C
21. CC(=O)Nc1ccc(NC(=O)C(c2ccccc2)N2Cc3ccccc3C2=O)cc1 (configuration not stated)
22. CC1=C(c2ccc(C)c(C)c2)S(=O)(=O)N(Cc2ccc(C(=O)Nc3cc(F)ccc3F)cc2)C1=O
23. O=C(O)CSc1nnc(-c2cccc(S(=O)(=O)N3CCOCC3)c2)n1-c1cccc(Cl)c1
24. CC(=O)N1CCOc2ccc(S(=O)(=O)N3CCC(C(=O)Nc4ccc(C)c(C)c4)CC3)cc21
Screen / compound no. | 17 | 18 | 19 | 20 | 21 | 22 | 23 | 24
TRPML1 agonist | 0.1 | 0.6 | -1.0 | -0.5 | 1.1 | 2.5 | 0.9 | -1.5
Six1-Eya2 blk | -9 | -7 | 5 | -1 | . | . | 14 | -1
D2 agonist | -0.4 | -5.7 | -2.6 | 0.8 | . | . | -1.6 | -11
TRPML1 inh | 6 | -9 | -9 | -26 | -14 | 31 | -16 | -6
CtBP-E1A inh | -5 | 25 | 4 | 9 | . | . | -25 | 0
PINK1 expr mod | 8.6%[38.3 µM] | 0.1% | 0.9% | -0.6% | 17% | 4.6% | 0.7% | -0.6%

25. Cc1ccc(Cn2c(=O)n(Cc3ccc(C(=O)NC4CCN(Cc5ccccc5)CC4)cc3)c(=O)c3ccccc32)cc1
26. CCCc1nn2c(=O)cc(COc3cccc(NC(=O)c4ccco4)c3)nc2s1
27. CC(C)(Cc1cccc(CC(C)(C)C(=O)O)c1)C(=O)O
28. COc1cnc(-c2ccccc2)nc1Oc1cccc(C)c1C
29. CCCCn1c(SCC(=O)Nc2cc(C)on2)nc2c1c(=O)n(C)c(=O)n2C
30. O=C(Cn1ccc(NC(=O)OCc2ccccc2)nc1=O)NCCCn1ccnc1
31. COc1cccc(NC(=O)c2cc(-c3cccnc3)nc3c(Cl)cccc23)c1
32. O=C(O)c1cccc(NC(=O)c2cn(-c3ccccc3)nc2-c2cccc(Br)c2)c1
33. O=C(NCc1ccccc1Cl)C1CCN(S(=O)(=O)c2ccc3c(c2)CCCN3C(=O)C2CCC2)CC1
34. O=C(NC1CCCc2ccccc21)C1CCC(CNS(=O)(=O)c2cccc3nsnc23)CC1 (configuration not stated)
Screen / compound no. | 25 | 26 | 27 | 28 | 29 | 30 | 31 | 32 | 33 | 34
TRPML1 agonist | 0.8 | 0.5 | 0.0 | 0.7 | 0.0 | -0.3 | -0.1 | -1.1 | 0.3 | -0.3
Six1-Eya2 blk | . | -2 | -2 | 20 | 3 | 1 | -2 | -3 | . | 6
D2 agonist | . | 1.4 | -2.6 | -0.9 | 0.2 | -4.1 | 2.6 | -0.1 | . | -1.1
TRPML1 inh | 6 | 18 | -7 | 7 | -8 | 9 | 0 | 16 | 21 | -2
CtBP-E1A inh | . | -3 | 6 | 31 | 4 | 5 | -15 | -1 | . | -1
PINK1 expr mod | 0.4% | 3.0% | -0.8% | 14% | 2.4%[38.3 µM] | -0.3% | 18%[38.3 µM] | 3.6% | -2.4% | 1.2%

Profiles from above. Screens in order: TRPML1 agonist, Six1-Eya2 blk, D2 agonist, TRPML1 inh, CtBP-E1A inh, PINK1 expr mod
O=C(NC1CCCc2ccccc21)C1CCC(CNS(=O)(=O)c2cccc3nsnc23)CC1 (configuration not stated) across the screens: -0.3, 6, -1.1, -2, -1, 1.2%
O=C(O)c1cccc(NC(=O)c2cn(-c3ccccc3)nc2-c2cccc(Br)c2)c1 across the screens: -1.1, -3, -0.1, 16, -1, 3.6%
CCCc1nn2c(=O)cc(COc3cccc(NC(=O)c4ccco4)c3)nc2s1 across the screens: 0.5, -2, 1.4, 18, -3, 3.0%
O=C(NCc1ccccc1Cl)C1CCN(S(=O)(=O)c2ccc3c(c2)CCCN3C(=O)C2CCC2)CC1 across the screens: 0.3, ., ., 21, ., -2.4%
CCCCn1c(SCC(=O)Nc2cc(C)on2)nc2c1c(=O)n(C)c(=O)n2C across the screens: 0.0, 3, 0.2, -8, 4, 2.4%[38.3 µM]
